Bioassay records deposited in PubChem BioAssay by ICCB-Longwood Screening Facility, Harvard Medical School.
BmaI1 enzyme: BmaI1 acyl-homoserine lactone synthase inhibition – biochemical, fluorescence intensity, with counterscreen (AID 720554); BmaI1 enzyme assay, fluorescence intensity; active compounds read high; test concentration not given here; a few actives read low; strong numbers were not always called active; inhibition, %; 12,000 tested, 0.4% active;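 active = both replicates within 2 robust z-scores of the inhibited control and a quiet counterscreen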;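 note: 0% = uninhibited enzyme and 100% = inhibited control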
BmaI1 enzyme counterscreen: recorded beside BmaI1 enzyme, whose call it bears; inhibition, %; measured here: counterscreen; design of the counterscreen not given here;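 first of two replicates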
* = called active by the depositor; & = joins results of further samples. This is a subset. The share of hits here may be higher or lower than overall.

SMILES	BmaI1 enzyme	BmaI1 enzyme counterscreen
COc1ccc(CN(C)CC(=O)NC2CCCCC2)cc1	0	0
CSc1nnc(-c2cccnc2)n1-c1ccccc1F	14	12
CCOCCCNc1ncnc2sccc12	6	5
CCN(CC)S(=O)(=O)c1ccc(=O)n(CC(=O)Nc2cccc(OC)c2)c1	12	10
C[C@H](NS(=O)(=O)c1ccccc1)C(=O)Nc1nccs1	23	9
NNC(=O)c1ccc2c(=O)n3c(nc2c1)CCC3	-98	-74
N#CCn1c(COC(=O)CCc2ccc(S(=O)(=O)N3CCOCC3)cc2)nc2ccccc2c1=O	34	-4
COc1ccccc1NC(=O)c1ccc(NC(=O)COC(=O)C2CCCO2)cc1 (centres undefined)	-2	-4
O=C(CC1OC(=O)c2ccccc21)OCC(=O)c1ccc(F)cc1 (centres undefined)	9	7
O=C(CCc1c[nH]c2ccccc12)N(Cc1ccco1)Cc1cccs1	10	0
CSc1nc2ccccc2n1CC(=O)c1cc(C)n(C)c1C	6	4
N#Cc1c(-c2ccco2)c2c([nH]c1=S)CCCC2=O	79	42
COc1cccc(NC(=O)CC(C)NCc2nc3ccccc3[nH]2)c1 (centres undefined)	24	6
O=C(Cn1cc(C(F)(F)F)ccc1=O)N1CCN(S(=O)(=O)c2ccc(Cl)cc2)CC1	0	-2
O=C(c1cnn(C(=O)C2COc3ccccc3O2)c1)c1ccccc1O (centres undefined)	20	32
O=C(Nc1ccc2[nH]c(=O)[nH]c2c1)c1cc(-c2ccco2)nc2ccccc12	27	13
O=C(N[C@@H](Cc1ccccc1)C(=O)NCc1cccs1)c1cccs1	14	3
CCOC(=O)C1CCN(S(=O)(=O)C(F)(F)c2nc3ccccc3s2)CC1	20	9
CC(C)C(NC(=O)c1ccccc1F)C(=O)Nc1ccc(N2CCOCC2)cc1 (centres undefined)	1	-12
CS(=O)(=O)c1ccc(F)cc1	-7	-1
Cc1sc2nc(CN3CCOCC3)nc(NS(=O)(=O)c3ccc4c(c3)OCCO4)c2c1C	-4	-2
Cc1nc2scc(CC(C)C)c2c(=O)[nH]1	-6	-5
CCN(CC)C(=O)CSc1nc2sccc2c(=O)n1-c1ccccc1	11	2
COc1ccc(C2=NN(C(=O)Cn3cc(C(F)(F)F)ccc3=O)C(c3ccco3)C2)cc1 (centres undefined)	14	6
O=C(OCc1ccccc1)c1cccc(OC(F)F)c1	12	12
O=C(COC(=O)Cn1cc(C(F)(F)F)ccc1=O)NCc1ccco1	0	0
COc1ccccc1CNC(=O)c1ccccn1	22	4
Cc1[nH]c2ccc(C(=O)OCC(=O)N3CCCC3=O)cc2c1C	3	-4
CC(C(=O)O)c1cccc(C(=O)c2ccccc2)c1 (centres undefined)	3	5
O=C(COC(=O)c1cc2c(s1)CCCCC2)c1cccs1	15	4

A section taken from the entries so far:
SMILES	BmaI1 enzyme	BmaI1 enzyme counterscreen
CSc1nnc(-c2cccnc2)n1-c1ccccc1F	14	12
CCOCCCNc1ncnc2sccc12	6	5
CCN(CC)S(=O)(=O)c1ccc(=O)n(CC(=O)Nc2cccc(OC)c2)c1	12	10
C[C@H](NS(=O)(=O)c1ccccc1)C(=O)Nc1nccs1	23	9
NNC(=O)c1ccc2c(=O)n3c(nc2c1)CCC3	-98	-74
N#CCn1c(COC(=O)CCc2ccc(S(=O)(=O)N3CCOCC3)cc2)nc2ccccc2c1=O	34	-4
COc1ccccc1NC(=O)c1ccc(NC(=O)COC(=O)C2CCCO2)cc1 (centres undefined)	-2	-4
O=C(CC1OC(=O)c2ccccc21)OCC(=O)c1ccc(F)cc1 (centres undefined)	9	7
O=C(CCc1c[nH]c2ccccc12)N(Cc1ccco1)Cc1cccs1	10	0
CSc1nc2ccccc2n1CC(=O)c1cc(C)n(C)c1C	6	4
N#Cc1c(-c2ccco2)c2c([nH]c1=S)CCCC2=O	79	42
COc1cccc(NC(=O)CC(C)NCc2nc3ccccc3[nH]2)c1 (centres undefined)	24	6
O=C(Cn1cc(C(F)(F)F)ccc1=O)N1CCN(S(=O)(=O)c2ccc(Cl)cc2)CC1	0	-2
O=C(c1cnn(C(=O)C2COc3ccccc3O2)c1)c1ccccc1O (centres undefined)	20	32
O=C(Nc1ccc2[nH]c(=O)[nH]c2c1)c1cc(-c2ccco2)nc2ccccc12	27	13
O=C(N[C@@H](Cc1ccccc1)C(=O)NCc1cccs1)c1cccs1	14	3
CCOC(=O)C1CCN(S(=O)(=O)C(F)(F)c2nc3ccccc3s2)CC1	20	9
CC(C)C(NC(=O)c1ccccc1F)C(=O)Nc1ccc(N2CCOCC2)cc1 (centres undefined)	1	-12
CS(=O)(=O)c1ccc(F)cc1	-7	-1

Further records.
SMILES	BmaI1 enzyme	BmaI1 enzyme counterscreen
COc1ccccc1N1CCN(C(=O)CC2SC(N)=NC2=O)CC1 (centres undefined)	10	5
O=C(CCNC(=O)c1ccccc1Cl)Nc1cc(Cl)ccc1N1CCOCC1	16	10
Cc1cc(C(=O)N(C/C=C/c2ccccc2)c2ccc3c(c2)OCCO3)no1	4	8
Cc1ccc(NC(=O)COC(=O)C23CCC(=O)N2c2ccccc2C(=O)N3C2CC2)cc1C (centres undefined)	4	5
CCN(CC(=O)Nc1cccc(F)c1)CC(=O)Nc1ccc2c(c1)OCCO2	26	14
O=C(CCNC(=O)c1ccccc1Cl)Nc1ccc2c(c1)OCCO2	6	4
CCC(C)(C)NC(=O)/C=C/c1cnc2ccccc2n1	14	10
CCn1c(N)c(C(=O)COC(=O)c2ccc(S(=O)(=O)C(F)F)cc2)c(=O)[nH]c1=O	-3	-6
COc1ccccc1-n1c(-c2ccccc2)cnc1SCC#N	12	4
Cc1cc(=O)n(CC(=O)Nc2ccc(F)cc2)c(SCC(N)=O)c1C#N	15	8
CCCc1cc(=O)[nH]c(SC(C)C(=O)NC(=O)NC)n1 (centres undefined)	5	-5
COCc1c(C(=O)NCc2ccc(OC)cc2)oc2ccccc12	7	2
CC(C)NCC(O)COc1cccc2[nH]ccc12 (centres undefined)	-9	8
CC(C)CC(=O)Nc1ccc(C(=O)COC(=O)CSc2nnc(-c3ccc4c(c3)OCO4)o2)cc1	11	10
CNC(=O)NC(=O)C(C)Oc1ccccc1-c1ccccc1 (centres undefined)	21	8
O=C(COC(=O)CC1CCCC1)Nc1cc(C(F)(F)F)ccc1N1CCOCC1	8	-1
CN(CCOc1ccc(CC2SC(=O)NC2=O)cc1)c1ccccn1 (centres undefined)	5&-14	12&-5
O=C1c2ccccc2C(=O)N1CCN1CCN(c2ncc(C(F)(F)F)cc2Cl)CC1	8	8
COc1cc(OC)cc(-c2nc(=S)n3ccsc3n2)c1	8	8
O=C(COc1ncnc2sc3c(c12)CCCC3)NC1CCS(=O)(=O)C1 (centres undefined)	17	13
CCN=C1NN=C(c2cc(C)n(Cc3ccco3)c2C)CS1	10	-4
CCOC(=O)CSCC1=C(C(=O)OCC)CNC(=O)N1	30	6
Cc1ccc(C)c(N2N=C(C(=O)OCC(=O)NC3CC3)CCC2=O)c1	14	16
CC(NC(C)(C)C)C(=O)c1cccc(Cl)c1 (centres undefined)	0&-10	3&-4
CCn1c2ccccc2c2cc(NC(=O)c3cc(C)on3)ccc21	16	8
CCOC(=O)c1sc(NC(=O)c2cc3c(C)nn(Cc4ccccc4)c3s2)nc1C	6	2
C=CCN(C(=O)CCc1c(C)nn(-c2ccccc2)c1C)c1nc2c(s1)CCCC2	18	10
Cc1noc(C)c1C(=O)N=c1sc2ccccc2n1C	4	0
O=C(Cc1ccccc1)Nc1ccc(-c2cn3ccsc3n2)cc1	18	9
Cc1csc(Cc2nc3ccccc3n2C)n1	16	8

For reference, part of the list above:
SMILES	BmaI1 enzyme	BmaI1 enzyme counterscreen
O=C(Cc1ccccc1)Nc1ccc(-c2cn3ccsc3n2)cc1	18	9
Cc1csc(Cc2nc3ccccc3n2C)n1	16	8

(cont.)
SMILES	BmaI1 enzyme	BmaI1 enzyme counterscreen
O=C(NC1CCCC1)c1ccccc1C(F)(F)F	-1	4
CC(C#N)OC(=O)c1ccccc1Sc1ccccc1C#N (centres undefined)	0	-4
CC1=C(C)CC2(SC1)C(=O)N(c1ccccc1)N=C2N (centres undefined)	12	10
C=CCN(CC(=O)N1CCCc2ccccc21)S(=O)(=O)c1cccs1	2	-4
CC1CCCCN1CC(=O)Nc1cc(C(C)(C)C)nn1-c1ccccc1 (centres undefined)	2	-6
O=C(OCC(=O)N1CCN(C(=O)c2ccco2)CC1)c1ccccc1	7	-5
COC(=O)c1ccc(CNC(=O)C(NC(C)=O)C(C)C)cc1 (centres undefined)	12	8
CCN(CC)S(=O)(=O)c1ccc2[nH]c(=O)cc(C(=O)Nc3ccccc3N3CCN(C)CC3)c2c1	16	7
Cc1cc(-n2c(C)cc(CNC(C)C(O)c3ccc(O)cc3)c2C)no1 (centres undefined)	12	0
O=C(Nc1nc(-c2cccs2)cs1)C1CC(=O)N(C2CCCC2)C1 (centres undefined)	18	4
O=C(O)c1cccc(OCc2cn3ccccc3n2)c1	17	4
COc1ccccc1N=C(N)Nc1cccc(C(F)(F)F)c1	2	10
CC1CCCCC1NC(=O)Cn1cnc2ccccc2c1=O (centres undefined)	10	-3
COc1ccc(OC)c(C(O)CNC(=O)CN)c1 (centres undefined)	9	26
O=C(CN1CC(=O)Nc2ccccc21)NCCc1ccc(Cl)cc1	-1	-2
Cc1cc(C)cc(NC(=O)C2CCCC2)c1	18	12
O=C(CCCSc1nc2ccccc2[nH]1)NCc1ccco1	12	6
CC(C)CC(C(=O)N1CCCc2ccccc21)N1C(=O)c2ccccc2C1=O (centres undefined)	4	2
O=C(Nc1nc2ccccc2[nH]1)c1ccc2c(=O)n3c(nc2c1)CCCCC3	12	6
CCOc1cc(N2CCOCC2)c(OCC)cc1NC(=O)c1cccc(-n2cnnn2)c1	14	9
COc1ccc(/C=C/C(=O)OCc2nc3ccsc3c(=O)[nH]2)cc1S(=O)(=O)N1CCOCC1	20	13
COCC(C)n1c(=S)[nH]c2ccccc2c1=O (centres undefined)	15	6
Cc1ccc(S(=O)(=O)N(C)C2CCS(=O)(=O)C2)cc1C (centres undefined)	10	9
CC1CCC(C#N)(N(C)C(=O)COC(=O)c2ccc(CSc3ncn[nH]3)cc2)CC1 (centres undefined)	5	10
CN(C)C1(CNCc2cnn(-c3ccccc3)n2)CCCCC1	9	0
CC(=O)n1cc(/C=N/NC(=O)c2sc(C)nc2C)c2ccccc21	16	18
O=C(CSc1nnc(COc2ccccc2Cl)o1)NC(=O)c1ccccc1	6	0
COC(=O)c1c(C)[nH]c(C(=O)CN(C)CC(=O)Nc2c(C)cc(C)cc2C)c1C	8	2
COC(CNCc1cc(Cl)c2c(c1)OCCCO2)OC	7	-4
S=c1nc(Nc2ccccc2)c2ccccc2[nH]1	-28	20
COc1cccc(N=C2NN=C(c3ccc(S(=O)(=O)N4CCCCC4)cc3)CS2)c1	32	14
COc1ccccc1NC(=O)C(C)OC(=O)c1ccc(O)cc1 (centres undefined)	22	14
CCN(CC)c1ccc(N=CN2CCOCC2)cc1	53	-31
CC(=O)Nc1nnc(S(N)(=O)=O)s1	-2	6
CCC1(C)NC(=O)N(/N=C/c2cc(Br)ccc2OC)C1=O (centres undefined)	8	0
CCCc1cc(=O)[nH]c(=S)[nH]1	-9	78
N#CCCn1cc(/C=C/C(=O)OCC(=O)c2ccc(Cl)cc2)c(-c2cc3ccccc3o2)n1	4	5
COc1ccc2nc(NC(=O)[C@@H]3CCCN3C(=O)c3cccs3)sc2c1	2	-5
Cc1nc(Cc2nnc(SCC(=O)c3ccc(Cl)s3)o2)cs1	12	4
COC(=O)c1nc(NC2=NCCCCC2)n[nH]1	2	-6
COc1ccc(C(=O)OCC(N)=O)c(OC)c1	10	8
CC(=O)Nc1nc(CSc2nnc(-c3cccc(S(=O)(=O)N4CCCCC4)c3)o2)cs1	6	0
COc1ccc(CNC(C)C2CC2)cc1 (centres undefined)	-7	-9
CC(Sc1nnc(-c2cccs2)n1-c1ccccc1)C(=O)c1c(N)n(C)c(=O)n(C)c1=O (centres undefined)	12	6
CN=C(Cl)c1ccco1	29	13
Cc1ccc(Nc2nc(CN(C)CCCc3[nH]nc(N)c3C#N)cs2)cc1	63	44
CCCCNC(=O)Nc1sccc1C#N	28	8
CCn1c(CSc2nc3ccccc3s2)nnc1SCC(=O)c1ccc(O)c(O)c1	84	39
Cc1ccc(SCCn2cc(S(=O)(=O)N3CCCC3)ccc2=O)cc1	10	6
Cc1ccc(S(=O)(=O)C(C#N)=C2N(C)c3ccccc3N2C)cc1	-2	-2
CC(=O)N1CCN(c2ncc(Cl)cc2Cl)CC1	15	4
Cn1/c(=N/N=C/c2ccc(N3CCOCC3)cc2)sc2ccccc21	18	20
N#Cc1ccccc1OCC(=O)NC1(C#N)CCCC1	2	6
O=C(Cn1ccc(=O)[nH]c1=O)NC1CCCCCC1	12	8
CCOC(=O)c1cnn(-c2nc3ccccc3s2)c1/N=C/N(C)C	30	5
Cc1cc(C(=O)COc2ccc3ccc(=O)oc3c2)c(C)n1C	24	14
O=S(=O)(/C=C/c1ccccc1)N1CCN(Cc2cc3c(cc2O)CCC3)CC1	13	-2
COc1cc(NC(=O)CNc2cccc(C#N)c2)cc(OC)c1	8	0
CCOC(=O)c1cc(-c2ccc(Cl)cc2)nc2c1c(=O)[nH]c(=O)n2CC(C)C	-4	-16
CC(C)c1ccc(S(=O)(=O)N2CCN(C(=O)CN3C(=O)c4ccccc4C3=O)CC2)cc1	18	14
The list continues.
SMILES	BmaI1 enzyme	BmaI1 enzyme counterscreen
Cc1ccc(-c2nnc3n2N=C(C(C)(C)C)CS3)cc1	21	2
Cc1nc(C)c(C(=O)OC(C)C(=O)Nc2ccc(C(N)=O)cc2)s1 (centres undefined)	13	7
Cc1ccc(S(=O)(=O)NCCC(=O)NC2=NCCS2)cc1C	18	12
CCC(C)(C)NC(=O)Cn1[nH]c(=O)c2ccccc2c1=O	12	3
